# Yeast UUG start: modulators of start codon recognition fidelity in yeast | S. cerevisiae UUG-firefly luciferase reporter, luminescence/redox ratio | activity score, % at 18.7 µM | 350,000 compounds, 0.13% hits | AID 602363;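 active = replicate mean at a twofold rise or more, about +100% in these data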;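 note: firefly luciferase made from a UUG start codon reports start codon fidelity; reporter light over untreated wells divided by growth signal over untreated wells; some hits fall short of that in this replicate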
# eIF4H FP inh: inhibitors of RNA binding by human eIF4H; AID 2012; Q15056; inhibition, % at 35 µM; 290,000 compounds, 0.94% hits; eIF4H fluorescence polarization binding assay;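 active = 50% or more with normal probe brightness, or confirmed in later tests; about a fifth of its hits are not listed in these tables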;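 note: calls also rest on retests at 20 µM and on dose response follow-up; 0% = protein and probe with vehicle and 100% = probe without protein; strong numbers were not always called active; many hits fall short of the cut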
# CSC inhib: blocks cancer stem cells. cancer stem cell-like cells viability, luminescence. inhibition, % at 7.5 µM. 300,000 compounds, 1.1% hits;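 active = mean at 75% or more and at least half the replicates too; tested in HMLE shEcad cells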;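 note: 0% = median of negative and 100% = median of positive control wells; the first replicate is given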
# Env fusion inh: HIV envelope-mediated fusion inhibition | HeLa-JRFL Env/CEM21 cell fusion, luciferase | inhibition, % at 12.3 µM | 360,000 compounds, 1.1% hits | AID 651610;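 active = mean replicate inhibition score of at least 50 and every replicate individually at or above 50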;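 note: 0% = plate neutral controls and 100% = maraviroc near 300 nM; one replicate is shown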
# PABP FP inh: blocks human PABP binding to poly(A) RNA; 290,000 compounds, 1% hits; P11940; fluorescence polarization; inhibition, % at 35 µM;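 active = 50% or more with normal probe brightness, or confirmed in later tests; about a fifth of its hits are not listed in these tables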;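 note: calls also rest on retests at 20 µM and on dose response follow-up; controls were probe without protein and protein plus probe with vehicle; some compounds called inactive have numbers as strong as hits; many hits fall short of the cut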
# Target sequence (P11940 whole entry, looked up): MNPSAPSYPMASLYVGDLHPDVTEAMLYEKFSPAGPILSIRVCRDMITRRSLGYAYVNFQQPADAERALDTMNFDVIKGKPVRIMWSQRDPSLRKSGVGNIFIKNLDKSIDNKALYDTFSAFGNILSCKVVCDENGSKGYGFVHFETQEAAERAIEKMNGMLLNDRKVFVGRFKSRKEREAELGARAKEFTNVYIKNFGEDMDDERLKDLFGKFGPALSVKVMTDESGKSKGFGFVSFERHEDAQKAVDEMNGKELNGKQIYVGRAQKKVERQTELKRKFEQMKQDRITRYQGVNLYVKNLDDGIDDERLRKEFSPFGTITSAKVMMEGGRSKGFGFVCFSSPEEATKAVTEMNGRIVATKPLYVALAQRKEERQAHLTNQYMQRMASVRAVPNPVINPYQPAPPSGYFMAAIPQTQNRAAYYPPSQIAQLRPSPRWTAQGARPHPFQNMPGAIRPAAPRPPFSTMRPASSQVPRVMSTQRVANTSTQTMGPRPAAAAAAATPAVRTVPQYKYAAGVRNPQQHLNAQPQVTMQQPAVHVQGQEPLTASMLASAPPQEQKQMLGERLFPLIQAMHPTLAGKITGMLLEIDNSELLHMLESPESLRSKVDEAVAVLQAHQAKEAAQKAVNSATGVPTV
# Rce1 inhib: blocks yeast Ras-converting enzyme | AID 2563 | yeast membranes, quenched prenylated peptide cleavage fluorescence | 290,000 compounds, 0.27% hits | calls only;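 active = fall in fluorescence gain of 50% or more versus controls, with final raw signal at or below 3038400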;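 note: plate controls were neutral control wells for no effect and wells lacking membranes for full effect; tested at 10 µM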
# MT1-MMP act inh: blocks activation of human MT1-MMP; P50281; HT1080 RFP-PRO-GFP cells, GFP/RFP ratio fluorescence, overnight; percent of plate control window, DMSO zero; GFP/RFP ratio change, % at 20 µM; 360,000 compounds, 0.061% hits;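 active = GFP/RFP ratio change of at least 30% with cell ATP level not reduced by more than half and red fluorescence within 50% of control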; note: strong numbers were not always called active
#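 Assay system – RFP-PRO-GFP reporter HT1080 cells · Compound dosing – single dose of 20 µM compound, 1% DMSO final · Incubation – overnight compound exposure at 37 °C · Measure – GFP/RFP fluorescence ratio · Benchmarks – DMSO wells and RFP-L50D-GFP cells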
# MT1-MMP act inh RFP: second read-out of MT1-MMP act inh, no call of its own (marks repeat the call); RFP signal change, %; measured here: RFP expression control read;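 0 = vehicle wells; hits needed this value within 50% of zero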
# An asterisk follows results filed as active; i = inactive; . = no result given. An excerpt; count on the stated rates, not on these rows.
SMILES	Yeast UUG start	eIF4H FP inh	CSC inhib	Env fusion inh	PABP FP inh	Rce1 inhib	MT1-MMP act inh	MT1-MMP act inh RFP
O=C(Cn1ccccc1=O)c1cccs1	-18.8	-1.2	-25.7	.	5.4	i	3.2	3.7
O=C(NCC(c1ccco1)N1CCc2ccccc2C1)c1ccc(Cl)cc1 (stereo not drawn)	3.0	.	-5.6	-13.5	.	i	-0.1	1.8
CCCCCCN(C(=O)CCCCCN1C(=O)NC(c2cccc([N+](=O)[O-])c2)C(C(=O)OCc2ccccc2)=C1C)C(C(=O)NCCCC)c1ccc(OCC(=O)OC)c(C(=O)OC)c1 (stereo not drawn)	.	-12.2	-42.8	-75.2	2.2	i	.	.
CCc1nnc(NC(=O)CSc2nnc(Cc3cc(=O)[nH]c(=O)[nH]3)n2-c2ccc(OC)cc2)s1	-7.1	4.1	7.1	-18.8	18.4	i	4.9	8.9
COCCNC(=S)N1CCN(C(=O)C(=O)Nc2ccc(C(=O)OC)cc2)CC1	.	-7.2	-14.1	-11.2	4.6	i	4.7	4.9
Cc1nnc2ccc(-c3cccc(NC(=O)c4ccco4)c3)nn12	-33.9	-7.8	-11.9	11.1	-6.6	i	8.5	5.4
Cc1ccc(C(=O)NCCCNC(=O)Cc2ccccc2)cn1	-12.8	-5.0	.	-2.7	-1.4	i	-1.7	1.3
O=C(Cc1csc(NC(=O)Nc2cccc(Cl)c2)n1)NCc1ccccn1	-0.5	.	.	-64.7	.	i	5.8	-4.2
COc1ccc2cc(C(=O)C3CCCN(C(=O)c4cnccn4)C3)ccc2c1 (stereo not drawn)	-8.2	-3.7	0.7	26.2	2.5	i	5.5	1.2
COC(=O)c1ccc(NC(=O)CC2C(=O)N(C)C(=S)N2Cc2ccc(S(N)(=O)=O)cc2)cc1 (stereo not drawn)	-18.1	-0.3	-11.9	1.8	3.3	i	12.0	-0.8
O=C(CCc1nc(-c2ccccc2F)no1)NCCN1CCN(Cc2ccccc2)CC1	10.8	5.2	-25.4	.	-7.0	i	1.5	-4.3
Cc1sc2nc[nH]c(=O)c2c1-c1ccc(Cl)cc1	-13.1	5.8	-1.9	1.1	3.1	i	-0.8	-4.2
O=C(/C=C/Nc1ccc(S(=O)(=O)Nc2ncccn2)cc1)c1ccc2ccccc2c1	-15.2	-0.3	-4.8	-2.2	3.2	i	1.1	0.5
Cc1ccccc1NC1c2ccccc2C(=O)N1Cc1ccco1 (stereo not drawn)	-1.2	12.1	-2.2	-9.0	0.7	i	-2.7	1.4
CCN(C[C@H]1N[C@@](CC)(C(=O)OC)[C@H]2C(=O)N(C)C(=O)[C@@H]12)S(=O)(=O)c1ccc(C(F)(F)F)cc1	-13.2	.	.	-28.8	.	.	1.9	6.8
COc1cc(C(=O)Oc2cccc(Nc3ncnc4ccccc34)c2)cc(OC)c1OC	.	3.8	44.6	.	-3.4	i	2.0	-21.4
COc1ccc(CC(=O)Nc2ccc(NC(=O)c3ccccc3F)cc2)cc1	.	-5.4	6.5	5.8	-5.2	i	0.1	0.6
CCc1[nH]nc(C(=O)NC2CCCN(Cc3ccccc3F)C2)c1C (stereo not drawn)	-2.4	1.7	-5.0	1.9	-7.5	i	-0.9	-0.3
NC(=O)COc1ccc(NC(=O)c2ccccc2-c2ccccc2)cc1	.	-7.9	-4.4	-20.5	6.0	i	-2.2	-0.2
CCNC(=O)c1c(N)sc2c1CCCCC2	1.4	62.2*	-6.5	.	91.6*	i	.	.
COC(=O)c1sccc1NC(=S)Nc1cc(C)ccc1OC	.	-11.8	-23.3	1.3	-5.5	i	3.6	1.4
COc1cc2ncnc(NCc3cccs3)c2cc1OC	.	-12.9	32.5	37.6	-18.0	i	-2.4	-4.9
Cc1ccc([C@H]2C[C@H](n3cc(COC(=O)c4ccccc4)nn3)[C@@H](O)CN2C(=O)C2CCCCC2)cc1	-32.7	.	.	0.0	.	.	-1.0	-3.7
COc1ccc(-c2cc(-c3nnc(COC(=O)C4CC4)o3)c3ccccc3n2)cc1OC	.	-4.6	-2.4	-2.3	0.3	i	6.3	-0.3
Cn1ncc(Br)c1C(=O)N1CCc2ccccc21	-16.8	-3.8	-15.5	.	-5.0	i	-7.3	-2.8
COCCCNC(=S)Nc1cc2oc3ccccc3c2cc1OC	-28.3	-2.8	-3.9	67.6*	-15.0	i	0.5	-5.7
Cc1[nH][nH]c(=O)c1[C@@H](c1ccccc1[N+](=O)[O-])C(C#N)C#N	.	17.8	-15.5	7.9	16.2	i	-5.1	2.5
Cc1ccc(S(=O)(=O)N2CCOCC2)cc1NC(=O)COC(=O)c1ccc(OCc2c(C)noc2C)cc1	12.9	3.8	20.7	11.7	-2.3	i	-0.8	0.9
COc1cc(S(=O)(=O)NCC2COCCO2)ccc1-n1cnnn1 (stereo not drawn)	-15.8	6.4	-2.1	.	-6.2	i	-2.8	0.3
COc1ccc(N2CC(O)=C(c3nc(C)cs3)C2=N)cc1	-10.8	-2.1	-7.1	.	1.5	i	-4.7	1.5

# Copied from the list:
# Result of `O=C(Cc1csc(NC(=O)Nc2cccc(Cl)c2)n1)NCc1ccccn1` in MT1-MMP act inh RFP: -4.2
# Result of `COC(=O)c1sccc1NC(=S)Nc1cc(C)ccc1OC` in eIF4H FP inh: -11.8
# Result of `Cc1ccc(S(=O)(=O)N2CCOCC2)cc1NC(=O)COC(=O)c1ccc(OCc2c(C)noc2C)cc1` in MT1-MMP act inh RFP: 0.9
# Result of `COCCNC(=S)N1CCN(C(=O)C(=O)Nc2ccc(C(=O)OC)cc2)CC1` in PABP FP inh: 4.6
# Result of `COCCCNC(=S)Nc1cc2oc3ccccc3c2cc1OC` in MT1-MMP act inh: 0.5

# (further entries)
SMILES	Yeast UUG start	eIF4H FP inh	CSC inhib	Env fusion inh	PABP FP inh	Rce1 inhib	MT1-MMP act inh	MT1-MMP act inh RFP
CCN(CC)c1ccc(NC(=O)CCNS(=O)(=O)c2ccc3c(c2)CCC(=O)N3)c(C)c1	-10.5	-0.8	-13.4	2.0	-5.4	i	2.2	-2.7
COc1ccc(NC(=S)NCc2ccccc2Cl)c(OC)c1	-29.0	5.6	1.5	-157.7	1.1	i	2.8	-1.1
O=C(O)CCSc1nnc(-c2cccnc2)n1-c1ccccc1	-9.9	5.2	-8.6	.	4.6	i	3.8	3.2
O=S(=O)(c1ccccc1F)N1CCN(C(=S)NCc2ccccc2)CC1	.	10.5	.	9.5	-1.6	i	-0.4	-0.2
Cc1ccc(CNC(=O)CCc2nc3ccccc3c(=O)[nH]2)cc1	-0.9	0.0	-5.5	-17.9	-4.5	i	-1.9	-0.8
N#C/C(=C\c1ccc[nH]1)C(=O)Nc1ccccc1Cl	-36.6	13.1	-9.3	-9.7	18.3	i	-6.5	-0.3
CC1CCN(c2ccc(/C=C(\C#N)c3nn(-c4ccccc4)c(N)c3C#N)cc2[N+](=O)[O-])CC1	-18.8	5.3	11.9	-13.4	-0.9	i	5.5	-3.9
COc1ccc(-n2nc(C(=O)NCC(=O)NCCC3=CCCCC3)c3ccccc3c2=O)c(OC)c1	8.2	1.8	-3.8	-1.0	-4.3	i	0.3	-2.4
CC1CCN(C(=O)C2CCN(CCCc3ccccc3)CC2)CC1	.	-3.5	-1.6	.	13.5	i	.	.
CC(C)(C)SCCNC(=O)CN(c1ccc(F)cc1)S(C)(=O)=O	-4.2	7.8	.	.	-11.1	.	2.6	1.5
CC(=O)c1cccc(NC(=O)C(C)OC(=O)CCC2CCCCC2)c1 (stereo not drawn)	-13.4	.	.	25.3	.	i	-5.3	0.9
Cc1sc2nc(C)n(/N=C/c3ccccc3)c(=O)c2c1C	-6.2	-10.4	-3.6	-7.7	-1.2	i	3.4	0.6
CCOC(=O)c1[nH]c(C)c(C(=O)NCCN2CCOCC2)c1C	-26.4	2.2	9.4	5.6	8.7	i	1.2	2.4
CC(OC(=O)c1cc(-c2cccnc2)nc2ccccc12)C(=O)Nc1ccc2ccccc2c1 (stereo not drawn)	.	-23.0	8.7	-19.4	-8.1	i	-4.1	-6.6
O=C(CNC(=O)c1ccccc1)OCC(=O)N1N=C(c2ccc(Cl)cc2)CC1c1ccco1 (stereo not drawn)	.	-3.5	-16.6	-3.0	3.3	i	-0.4	0.9
Cc1cccnc1NC(=O)Nc1cccc(F)c1	-1.6	.	.	-22.7	.	.	-1.0	1.1
COc1cccc(Cn2nnc(C(=O)Nc3cc(Cl)ccc3OC)c2N)c1	-14.5	5.1	79.5*	11.2	-2.2	i	-1.1	-7.2
CCOC(=O)c1cnc(SCC(=O)Nc2ccc(N3CCOCC3)cc2)nc1N	.	-2.7	-3.7	.	-7.4	i	.	.
Cc1cccc(C)c1NC(=O)CNC(=O)Cc1ccc(Br)cc1	.	-1.2	-12.7	-13.2	1.3	i	-2.7	0.9
Nc1nc(-c2ccco2)nn1S(=O)(=O)c1ccc(Cl)cc1	.	-5.5	-12.2	-4.6	2.8	.	-2.1	0.4
O=C(Nc1ccccc1Cl)c1cc(C2CCCCN2C(=O)c2cccs2)on1 (stereo not drawn)	-15.8	.	.	6.0	.	.	-4.0	-7.6
CCC1(CC)NC(=O)N(CC(=O)OCC(=O)Nc2ccccc2[N+](=O)[O-])C1=O	.	1.0	-19.4	4.4	20.1	i	-0.6	-0.6
COc1ccc(CN2C(=O)CCCc3ccccc32)cc1	.	-7.9	10.2	10.7	-2.3	i	-2.5	-3.0
Cc1cc(=O)oc(C)c1C(=O)NCC1COc2ccccc2O1 (stereo not drawn)	0.8	0.0	-10.2	.	8.9	i	-5.2	0.9
Cc1ccc(C(=O)n2cnnc2N)cc1C	-26.1	-7.1	-11.5	-15.0	-0.1	i	1.0	5.0
CC(NC(=O)Cc1ccc(NS(=O)(=O)c2cccc(C(F)(F)F)c2)cc1)c1ccccn1 (stereo not drawn)	-16.5	-24.5	-20.3	14.4	2.0	i	4.9	-4.4
COc1ccc(C(=O)NCc2ncccc2C)cc1OC1CCN(C(C)=O)CC1	-22.4	-8.6	-2.6	.	-6.2	i	1.3	-1.4
CC1=C(C(=O)OCCOC(C)C)C(c2cccnc2)C2=C(CCCC2=O)N1 (stereo not drawn)	-18.4	-2.3	-0.6	.	-2.6	.	3.2	8.3
O=C(COc1ccc(F)cc1)NN1C(=O)CSC1=S	.	17.7	-3.5	9.6	5.4	i	-12.6	23.4
O=C(Nc1ccc(Cl)cc1)Nc1nc(-c2sccc2Br)cs1	.	-13.4	-1.9	.	-8.4	i	-3.9	-2.2

# Two records drawn at random from those above, as already listed:
SMILES	Yeast UUG start	eIF4H FP inh	CSC inhib	Env fusion inh	PABP FP inh	Rce1 inhib	MT1-MMP act inh	MT1-MMP act inh RFP
COc1ccc(C(=O)NCc2ncccc2C)cc1OC1CCN(C(C)=O)CC1	-22.4	-8.6	-2.6	.	-6.2	i	1.3	-1.4
COc1ccc(NC(=S)NCc2ccccc2Cl)c(OC)c1	-29.0	5.6	1.5	-157.7	1.1	i	2.8	-1.1

# (cont.)
SMILES	Yeast UUG start	eIF4H FP inh	CSC inhib	Env fusion inh	PABP FP inh	Rce1 inhib	MT1-MMP act inh	MT1-MMP act inh RFP
COCCNC(=O)CSc1nc2cc3c(cc2c(=O)n1Cc1ccco1)OCO3	-6.3	-12.0	-4.0	-21.9	-8.3	i	6.7	-0.5
CCN1C(=O)[C@H]2[C@@H](c3ccc(C)cc3)N3C(=O)N(c4cccc(C)c4)C(=O)[C@@]3(Cc3ccccc3)[C@H]2C1=O	-11.8	-2.3	-3.8	-35.8	10.5	i	1.5	0.9
Cc1cc([N+](=O)[O-])cnc1Sc1nccn1C	.	12.0	.	15.5	-3.1	i	0.3	4.2
O=C(N/N=C/c1cccc2ccccc12)c1ccncc1	-29.0	3.1	-10.0	2.6	3.0	i	3.3	3.3
CCc1nc(SCC(=O)N2CCCc3ccccc32)c2oc3ccccc3c2n1	-12.0	7.3	10.3	-54.3	0.9	i	-5.5	-15.3
